# Assay outcomes: PubChem BioAssay, several laboratories
# Arbovirus anti – arbovirus infection inhibition. arbovirus infection cell-based antiviral screen. inhibition, % at 10 µM. 0.37% of 200,000 active. AID 1251;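 active = inhibition from about 30%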;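 also: bluetongue infection of BSR cells; cell survival read as ATP light after 72 h; 0% = infected wells without compound and 100% = uninfected wells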
# Mtb growth – M. tuberculosis H37Rv growth inhibitors, H37Rv strain (AID 1626). M. tuberculosis H37Rv growth inhibition; higher % means a stronger effect. one-dose inhibition, % at 10 µM; IC50 in µM for titrated hits. 0.95% of 220,000 active;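 active = confirmed in a dose series; inconclusive = inhibition above 80% but not taken into the dose series; inactive = below 80% or under 30% at every dose of the series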;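 also: bacteria incubated seven days before Alamar blue readout; 0% = bacteria only wells and 100% = bacteria with antibiotic wells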
# Mtb bLac sens – beta-lactam sensitization of Mtb H37Rv; M. tuberculosis H37Rv growth with meropenem, percent inhibition; hits of this screen are not shown here; inhibition, % at 25 µM; 0.27% of 330,000 active;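 active = about 74% or more and at least 40 points above the plate without the antibiotic, then above 30% in a dose series; inconclusive = first-round hits that could not be retested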;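 also: growth measured after seven days incubation then overnight dye step; 0% = bacteria only wells and 100% = bacteria with antibiotic; twin plates without the antibiotic show which effects depend on it; some results filed as inactive read as strong as hits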
# YopH inh – YopH (Yersinia) phosphatase inhibition; fluorescence Ex485/Em525; inhibition, %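 (about 10 µM by stock and volumes)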; 0.16% of 140,000 active;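 active = inhibition of 50% or more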;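 also: controls were vehicle for no effect and minimum signal wells for full effect; inactives centre near -20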
# RecA intein inh – inhibitors of M. tuberculosis RecA intein splicing; P9WHJ3; cell-free RecA intein splicing, fluorescence; inhibition, %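 (about 9 µM by stock and volumes)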; 0.75% of 290,000 active; in the data active = inhibition above about 30%; inconclusive = no clear call, values can overlap the other calls;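 also: 0% = vehicle wells and 100% = reference inhibitor control wells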
# Target sequence (P9WHJ3 whole entry, looked up): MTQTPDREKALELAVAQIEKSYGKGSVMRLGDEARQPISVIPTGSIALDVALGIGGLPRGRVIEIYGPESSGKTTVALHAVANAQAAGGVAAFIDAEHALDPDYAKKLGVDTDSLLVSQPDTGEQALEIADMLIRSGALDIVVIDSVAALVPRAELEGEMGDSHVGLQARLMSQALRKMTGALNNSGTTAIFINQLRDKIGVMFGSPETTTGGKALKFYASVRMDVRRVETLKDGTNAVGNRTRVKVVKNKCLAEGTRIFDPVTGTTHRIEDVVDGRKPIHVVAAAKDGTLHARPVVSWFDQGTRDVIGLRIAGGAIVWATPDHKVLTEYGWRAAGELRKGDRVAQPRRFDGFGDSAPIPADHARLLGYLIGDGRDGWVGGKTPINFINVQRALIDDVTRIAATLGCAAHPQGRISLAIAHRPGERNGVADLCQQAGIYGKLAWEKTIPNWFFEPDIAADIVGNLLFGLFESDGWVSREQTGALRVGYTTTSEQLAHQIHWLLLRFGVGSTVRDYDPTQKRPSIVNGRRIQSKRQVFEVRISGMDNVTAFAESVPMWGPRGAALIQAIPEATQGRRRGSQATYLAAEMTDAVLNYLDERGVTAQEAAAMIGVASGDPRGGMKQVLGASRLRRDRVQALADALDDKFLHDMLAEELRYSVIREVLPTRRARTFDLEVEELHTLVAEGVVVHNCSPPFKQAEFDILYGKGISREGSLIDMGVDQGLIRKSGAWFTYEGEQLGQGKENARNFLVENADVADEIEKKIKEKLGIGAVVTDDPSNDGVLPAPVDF
# Arbovirus anti repeat – recorded beside Arbovirus anti, whose call it bears; inhibition, %; measured here: 10K subset replicate screen; many hits read low in the repeat;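 first of two repeat runs on a subset; 0% = infected and 100% = uninfected wells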
# Numbers without * were called inactive; ? = inconclusive; · = no result given; & = joins results of further samples. A portion of the library; count on the stated rates, not on these rows.
SMILES,Arbovirus anti,Mtb growth,Mtb bLac sens,YopH inh,RecA intein inh,others
CCCCCCC(=O)Nc1ccc(C(=O)N2CCCC2)cc1,3,58%,-2,-11,-0.4,
CC(Oc1ccc(Cl)cc1Cl)C(=O)NN=C1CCN(C)CC1 (stereo not given),-1,1%,-3,-12,-1.1,
Cc1ccccc1NC(=O)CCC(=O)N/N=C/c1c[nH]c2ccccc12,1,5%,3,·,-0.2,
C=CCOc1ccc(-c2nc3c(c(=O)[nH]c(=O)n3CCCC)n2C)cc1OC,10,-3%,2,·,-1.4,
CC(C)COc1ccc(C(=O)OCCN2CCCCC2)cc1,·,·,4,·,0.4,
Cc1cc(Br)cc(C)c1NC(=S)NC(=O)CC(C)C,10,4%,4,-6,-0.5,
Cc1ccc(S(=O)(=O)N(C)CC(=O)N2CCN(c3ccccn3)CC2)cc1,-7,-7%,5,-38,4.1,
Cc1ccc(C(=O)NCCc2c[nH]c3ccccc23)s1,·,·,-3,·,1.5,
O=C(Nc1nnc(-c2ccccc2)o1)C1CCCCC1,10,?,62,12,-4.5,
Cc1nc2ccc(C(=O)O)cc2[nH]1,-7,-7%,-6,-6,0.7,
COc1ccc(CN(C)CCc2ccccn2)c(OC)c1OC,-2,-15%,4,-41,-2.1,
CCN1C(=O)CC(N2CCN(c3ccc(C(=O)c4ccncc4)cc3)CC2)C1=O (stereo not given),9,-5%,-10,-23,-0.7,
NNC(=O)CCc1c[nH]c2ccccc12,-3,1%,0,-1,5.1,
CC(C)NC(=O)c1ccc(OC2CSC2)cc1,0,7%,-2,16,1.5,
O=C(c1ccc(C(=O)N2CCCCCC2)cc1)N1CCCCCC1,4,2%,9,-10,1.2,
C=CCN1C(=O)/C(=C/c2ccccc2)S/C1=N/c1nccs1,4,10%,2,-13,-0.6,
O=C(O)C1C2C=CC3(CN(c4cccc(C(F)(F)F)c4)C(=O)C13)O2 (stereo not given),6,-7%,6,-4,-0.4,
COc1ccccc1-n1c(SCC(=O)N2CCOCC2)nc(O)cc1=O,·,·,2,·,-9.8,
COc1ccc2oc(=O)cc(C)c2c1,4,·,0,-39,0.6,
O=c1oc2ccc(Cl)cc2cc1-c1ccccc1,-19,-4%,?,-35,-1.0,
N#Cc1nc(N2CCOCC2)nc(N2CCOCC2)n1,4,3%,15,-46,2.0,
CCC1Oc2ccc(C)cc2N(CC(=O)NCC2COc3ccccc3O2)C1=O (stereo not given),-12,2%,4,-48,0.4,
O=C(OCc1cccc([N+](=O)[O-])c1)c1ccc2ccccc2n1,-1,6%,98,·,-0.1,
CC1(C)CC(=O)c2c(O)cc(OCc3ccc([N+](=O)[O-])cc3)cc2O1,3,·,-4,-38,2.7,
Cc1c(OCc2ccc(C(=O)O)o2)ccc2c3c(c(=O)oc12)CCC3,17,-11%,2,-34,-1.3,

# 3 compounds from above, arranged by formula weight, rising.
SMILES,Arbovirus anti,Mtb growth,Mtb bLac sens,YopH inh,RecA intein inh,others
CC(C)COc1ccc(C(=O)OCCN2CCCCC2)cc1,·,·,4,·,0.4,
Cc1ccccc1NC(=O)CCC(=O)N/N=C/c1c[nH]c2ccccc12,1,5%,3,·,-0.2,
COc1ccccc1-n1c(SCC(=O)N2CCOCC2)nc(O)cc1=O,·,·,2,·,-9.8,

# Among those listed so far, these have a nitro group on carbon.
SMILES,Arbovirus anti,Mtb growth,Mtb bLac sens,YopH inh,RecA intein inh,others
O=C(OCc1cccc([N+](=O)[O-])c1)c1ccc2ccccc2n1,-1,6%,98,·,-0.1,
CC1(C)CC(=O)c2c(O)cc(OCc3ccc([N+](=O)[O-])cc3)cc2O1,3,·,-4,-38,2.7,

# Looked up by structure from above:
SMILES,Arbovirus anti,Mtb growth,Mtb bLac sens,YopH inh,RecA intein inh,others
C=CCOc1ccc(-c2nc3c(c(=O)[nH]c(=O)n3CCCC)n2C)cc1OC,10,-3%,2,·,-1.4,
O=C(OCc1cccc([N+](=O)[O-])c1)c1ccc2ccccc2n1,-1,6%,98,·,-0.1,

# Going on with the list.
SMILES,Arbovirus anti,Mtb growth,Mtb bLac sens,YopH inh,RecA intein inh,others
O=C(c1ccccc1NS(=O)(=O)c1cccs1)N1CCOCC1,-6,-2%,-2,-31,·,
O=C(NCc1cccnc1)c1cc(Sc2cccc(Cl)c2)nc2ccccc12,15,15%,12,-24,1.5,
CCN(CC)S(=O)(=O)c1ccc(NC(=O)CC(NC(C)=O)c2ccccc2)cc1 (stereo not given),7,5%,-5,-5,-0.6,
CCc1cc(=O)oc2cc(C)cc(OCC(=O)NCCN3CCOCC3)c12,·,·,7,·,-2.7,
c1ccc(Cn2ncc3c(Nc4ccccc4)ncnc32)cc1,·,2%,2,·,3.7,
Cn1c(C(=O)N[C@@H](Cc2ccccc2)C(=O)O)cc2cc(F)ccc21,·,·,-5,·,-0.8,
COc1ccc(/C=C/C(=O)N2CCN(S(=O)(=O)c3ccccc3)CC2)cc1OC,2,3%,-4,·,0.4,
CC(=O)c1cccc(-n2nnnc2SCC(=O)N2CCCC2)c1,10,-3%,-6,7,-0.4,
O=C1CN(C(=O)c2ccc(F)c(S(=O)(=O)N3CCOCC3)c2)c2ccccc2N1,2,1%,-16,·,-1.4,
COc1cc(C(N)=O)cc(Br)c1OCc1ccccc1,3,-1%,2,-25,1.9,
CCNc1ccc(S(=O)(=O)N(C)C)cc1NCC(=O)Nc1ccc(Br)cc1F,7,1%,1,-38,0.8,
O=C1CN(S(=O)(=O)c2ccc(Cl)cc2)c2ccccc2N1,·,·,-1,·,5.0,
CC(O)CNc1ncnc2cc(-c3ccc(F)cc3)sc12 (stereo not given),·,·,5,·,-19,
CCOC(=O)CNC(=O)N1CCCC(C(=O)c2ccc3c(c2)OCO3)C1 (stereo not given),-1,1%,-5,·,1.0,
C=COCCNC(=S)N1CCOCCOCCN(C(=S)NCCOC=C)CCOCC1,11,0%,-5,·,2.6,
O=C(O)c1ccc(-n2nc(C(F)(F)F)c3c2CCCC3)cc1,-2&2,1%&-5%,1&-1,-15,-4.0,
Nc1nonc1-n1nnc(C(=O)N/N=C/c2ccc(OCc3cccc(Cl)c3)cc2)c1CN1CCCCC1,·,·,6,·,0.2,
COc1ccc(OCC(=O)Nn2c(-c3ccc(C)cc3)nc3ccccc3c2=O)cc1,7,-3%,5,-25,-2.4,
Fc1ccccc1-c1nc(-c2ccc(Cl)cc2)no1,·,-6%,5,-2,3.1,
Cc1ccc(S(=O)(=O)N(C)CC(=O)NC2CC(C)(C)NC(C)(C)C2)cc1,-5,-17%,-7,-4,-2.2,
CCCC(C)C(=O)Nc1ccc2c(c1)OCCO2 (stereo not given),1,3%,6,-40,-1.5,
C/C(Cc1ccccc1)=N\NC(=O)CNC(=O)c1cccc(Cl)c1,·,14%,-1,·,0.8,
O=c1c2ccccc2oc2nc(-c3ccco3)n(-c3ccccc3)c(=O)c12,16,-2%,0,-1,-0.1,
CCN1C(=O)c2ccccc2S(=O)(=O)c2ccc(C(=O)NCCOC)cc21,·,·,?,·,-1.6,
O=C(NCC1CCN(C(=O)c2cccc([N+](=O)[O-])c2)CC1)c1cccc([N+](=O)[O-])c1,·,·,-8,·,-0.9,
# (further entries)
SMILES,Arbovirus anti,Mtb growth,Mtb bLac sens,YopH inh,RecA intein inh,others
CCC(CC)NC(=O)COC(=O)c1ccc(NS(=O)(=O)c2ccc3c(c2)OCCO3)cc1,2,·,11,-21,0.4,
Cc1ccc2nc(SCC(=O)NCc3ccc(F)cc3)[nH]c2c1,·,·,-4,·,1.9,
N[C@@H](CCl)C(=O)O,·,-7%,89,·,4.5,
COc1ccc(/C=N/NC(=S)NCc2ccccc2)cc1OC,15,-3%,5,-25,1.2,
O=C(O)CCc1nn2c3ccccc3nc2n(Cc2ccccc2)c1=O,3,-2%,2,·,-5.8,
COCCCNc1c2c3c(cccc3[nH]c1=O)C(=O)c1ccccc1-2,-31,9%,-1,-21,·,
CS(=O)(=O)N(CC(=O)Nc1ccc2c(c1)OCO2)c1ccc2c(c1)OCO2,-5,5%,-8,-8,-0.5,
Cn1c(CN2CCN(S(C)(=O)=O)CC2)nc2cc([N+](=O)[O-])ccc21,·,·,1,·,-0.4,
Cc1noc(NS(=O)(=O)c2ccc(N/C=C\C(=O)c3ccncc3)cc2)c1C,5,0%,1,-21,1.3,
O=C(NCc1cccc(Cl)c1)NC(=O)c1csc([N+](=O)[O-])c1,·,4%,3,·,-3.3,
Cc1ccc(-n2ncc3c(=O)n(CC(=O)N4CCN(c5ccccc5F)CC4)cnc32)cc1C,-9,-4%,3,-4,1.2,
Fc1ccc(NC(=S)Nc2cccnc2)c(F)c1F,0,5%,-2,·,-0.8,
Cn1c(C(=O)N2CCOCC2)cnc1Sc1ncc(C(F)(F)F)cc1Cl,13,-1%,-4,-5,3.4,
CC(C)=CCC/C(C)=C/CC/C(C)=C/CC/C(C)=C/CC1=C(C)C(=O)c2ccccc2C1=O,·,-2%,4,·,26,
N#CCCn1cc(C(=O)NCc2ccccc2)c(-c2ccccc2)n1,3,5%,3,·,1.0,
COc1cccc(CN2CCCC(CNC(=O)c3ccc(F)cc3)C2)c1OC (stereo not given),4,-5%,1,·,-1.9,
COc1ccc(NC(=O)c2ccc(NC(=O)CSc3nccc(=O)[nH]3)cc2)cc1,·,-4%,56,·,-1.3,
CC1(C)CC(CC(=O)O)(c2ccc(Cl)cc2)CCO1 (stereo not given),9,-7%,-1,-8,-3.1,
CC(C)(C)C(=O)Nc1ccc(-c2cc3cc(Cl)ccc3o2)cc1,·,6%,-7,·,-2.6,
COC(=O)c1[nH]c(C)c(/C(O)=C2\C(=O)C(=O)N(CCN3CCOCC3)C2c2ccco2)c1C (stereo not given),·,0%,-5,·,-0.4,
CCOc1ccc(CNC(=O)CCc2cn(C)c3ccccc23)cc1OC,14,5%,-5,·,-1.7,
CN(C)S(=O)(=O)c1ccc(Cl)c(NC(=O)CSc2nc3ccccc3c(=O)n2CCCN2CCOCC2)c1,8,5%,-5,-16,3.3,
Cn1c(NCCCN2CCOCC2)nc2c1c(=O)n(Cc1ccc(Cl)cc1)c(=O)n2C,4,7%,-9,6,-1.0,
O=C1OC(N2C(=O)CC[C@H]2C(=O)Nc2cccc(F)c2)c2ccccc21 (stereo not given in full),·,·,-9,·,-5.2,
CS(=O)(=O)c1ccc2nc(NC3(C(F)(F)F)N=C4SCCN4C3=O)sc2c1 (stereo not given),-3,-8%,-4,-4,-2.1,
# Continued.
SMILES,Arbovirus anti,Mtb growth,Mtb bLac sens,YopH inh,RecA intein inh,others
COc1ccc(C(=O)N2CCN(S(=O)(=O)c3ccc(C)cc3C)CC2)cc1OC,12,1%,6,-16,4.4,Arbovirus anti repeat=8
COc1ccc(CCNC(=O)C2CCN(C(=O)c3ccc(Br)cc3)CC2)cc1,·,·,-6,·,-0.3,
COc1ccc(-n2ccnc2SCC(=O)NCc2ccccc2)c(OC)c1,3,0%,-6,·,0.9,
O=C(NCCCCNC(=O)c1ccc(F)cc1)c1ccc(F)cc1,·,·,-3,·,0.5,
CCC(C)NC(=O)C1CCN(S(=O)(=O)CC)CC1 (stereo not given),1,3%,2,-23,-0.6,
Cc1cccc(N(C(=O)c2snc(C(N)=O)c2N)C(C(=O)NCC2CCCO2)c2c[nH]c3ccccc23)c1 (stereo not given),·,·,2,·,-1.2,
COc1ccc2c(c1)C(C)CC(C)(C)N2C(=O)CSc1ncn[nH]1 (stereo not given),9,-1%,-12,-37,·,
O=C(NC(=S)Nc1ccccc1N1CCOCC1)c1ccc(Br)cc1,·,·,-13,·,9.8,
FC(F)(F)c1cccc(-c2ccc(-c3csnn3)o2)c1,-3,-7%,2,-30,20,Arbovirus anti repeat=-1
CCOc1cc(/C=N/NC(=O)c2cc(-c3cccc(OC)c3)nc3ccccc23)ccc1O,·,·,0,·,-5.8,
COc1cccc(C2C3=C(CCCC3=O)NC3=C2C(=O)c2ccccc23)c1 (stereo not given),-6,-2%,-4,·,-3.2,
CCC(=O)N1CCc2cc(Br)cc(S(=O)(=O)N3CCCCCC3)c21,-3,3%,-4,-2,-2.4,
CCCc1nnc(NC(=O)CCC(=O)N2CCN(C3c4ccccc4-c4ccccc43)CC2)s1,-7,3%,5,-33,5.0,
O=C(CSc1ncnc2c1oc1ccccc12)Nc1nc2ccccc2s1,-1,12%,0,-4,0.9,
O=c1[nH]c(CSc2ccccn2)nc2c1cnn2-c1ccccc1,-1,14%,7,-6,-2.6,
CCCCc1ccc(NC(=O)NCc2ccccn2)cc1,·,·,-9,·,-0.3,
COc1ccc(C(=O)N/C(=C\c2ccccc2)C(=O)NC(CC(C)C)C(=O)O)cc1 (stereo not given),9,-9%,2,·,-1.3,
O=C(CSc1ncnc2c1oc1ccccc12)Nc1cccc(F)c1,-3,0%,0,-54,0.9,
N#CC(C(=O)OC1CCCCC1)c1nc2ccccc2nc1N1CCCCC1 (stereo not given),3,3%,·,9,-4.7,
CCOC(=O)C1=C(CSc2nc3c(cc2C#N)CN(C)CC3)OC(N)=C(C#N)C1c1ccc(F)cc1 (stereo not given),1,-6%,13,-5,-12,
